PINK1 modulator = A Quantitative High throughput Screen to Identify Chemical Modulators of PINK1 Expression; PINK1 immunofluorescence, high-content cytometry, 24 h; Potency, µM (series often up to 76.6 µM), for the others: at the top dose activation (PINK1 increase), actives largely listed as activators; hit rate 0.2% among 410,000; active = well fitted activation curve with a large enough effect; inconclusive = small, poorly fitted or top-dose-only effect; inactive = flat fitted curve, though single readings scatter; cell line not stated here;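 also: potency is read from the fitted curve at half-maximal effect; % of control where 0% means no effect; nearly all actives have a fitted effect of over 65% in size; a mitochondrial uncoupler was the plate control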
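Cells are seeded, rested 12 hours, then given compound at five concentrations or DMSO for 24 hours. After fixation, blocking and antibody staining, PINK1 amount and mitochondrial localization are scored; CCCP serves as control.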
CtBP-E1A inh = qHTS Assay for Inhibitors of the CtBP/E1A Interaction. activity change, % (test concentration not listed). hit rate 0.49% among 340,000. AlphaScreen GST-E1A/His-CtBP binding, 1536-well; active compounds read low; control for the full effect not named in the record; in the data active means activity change below about -65%; inconclusive means about -30% to -65%; inactive means above about -30%; also: % is scaled to controls: 0 for no effect and ±100 for the full control effect
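In 5 uL wells, 23 nL compound meets equimolar GST-E1A and His-CtBP (5X stock 125 nM each) for 2 h, 37 °C. Beads (5X, 50 ug/mL) then 1 h, 37 °C, dark.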
D2 ag = Beta-Arrestin HTS for Positive Allosteric Modulators of the Human D2 Dopamine Receptor: Agonists | DiscoveRx PathHunter D2 beta-arrestin, luminescence, 90 min; 100% = 57 uM dopamine signal | D(2) dopamine receptor (Homo sapiens), P14416 | AID 624465, 2012 | hit rate 0.084% among 360,000 | activation, % (test concentration not listed); in the data active = activation above about 40%; inconclusive = about 15% to 40%; inactive = below about 15%; also: compound concentration not given in the record; the text of the record calls up to 30% inactive
Target sequence (P14416 whole entry, looked up): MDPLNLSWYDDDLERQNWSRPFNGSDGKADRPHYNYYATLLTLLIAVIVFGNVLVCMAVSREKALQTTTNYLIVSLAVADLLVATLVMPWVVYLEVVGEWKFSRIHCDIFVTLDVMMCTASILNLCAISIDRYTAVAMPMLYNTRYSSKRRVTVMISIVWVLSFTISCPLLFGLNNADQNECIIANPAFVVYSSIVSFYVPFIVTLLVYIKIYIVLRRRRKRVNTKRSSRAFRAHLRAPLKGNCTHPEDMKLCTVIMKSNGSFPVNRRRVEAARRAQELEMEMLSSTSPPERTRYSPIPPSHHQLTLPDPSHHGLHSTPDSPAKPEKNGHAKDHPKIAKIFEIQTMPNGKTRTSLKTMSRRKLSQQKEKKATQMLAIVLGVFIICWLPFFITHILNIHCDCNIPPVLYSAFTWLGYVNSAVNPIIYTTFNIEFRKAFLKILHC
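DiscoveRx PathHunter D2 beta-arrestin cells (2,100/well) attached overnight, then compound-stimulated 90 min at 37 C in HBSS/10 mM HEPES/0.1% Tween-20 buffer; beta-galactosidase complementation read by luminescence after 1 h at ambient temperature. Dopamine 57 uM final (EC100) as control.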
TRPML1 agonist = qHTS for Agonists of the Human Mucolipin Transient Receptor Potential 1 (TRPML1) | AID 624414, 2012 | hit rate 0.12% among 410,000 | TRPML1-expressing cells, Ca2+ dye fluorescence, FDSS; host cell line not named in the record; reference of the full effect not given here | activation, % (test concentration not listed); in the data active = activation above about 50%; inconclusive = about 30% to 50%; inactive = below about 30%; also: 0% is about no effect; the text of the record puts the active cut at 80%
Target sequence (Q9GZU1 whole entry, looked up): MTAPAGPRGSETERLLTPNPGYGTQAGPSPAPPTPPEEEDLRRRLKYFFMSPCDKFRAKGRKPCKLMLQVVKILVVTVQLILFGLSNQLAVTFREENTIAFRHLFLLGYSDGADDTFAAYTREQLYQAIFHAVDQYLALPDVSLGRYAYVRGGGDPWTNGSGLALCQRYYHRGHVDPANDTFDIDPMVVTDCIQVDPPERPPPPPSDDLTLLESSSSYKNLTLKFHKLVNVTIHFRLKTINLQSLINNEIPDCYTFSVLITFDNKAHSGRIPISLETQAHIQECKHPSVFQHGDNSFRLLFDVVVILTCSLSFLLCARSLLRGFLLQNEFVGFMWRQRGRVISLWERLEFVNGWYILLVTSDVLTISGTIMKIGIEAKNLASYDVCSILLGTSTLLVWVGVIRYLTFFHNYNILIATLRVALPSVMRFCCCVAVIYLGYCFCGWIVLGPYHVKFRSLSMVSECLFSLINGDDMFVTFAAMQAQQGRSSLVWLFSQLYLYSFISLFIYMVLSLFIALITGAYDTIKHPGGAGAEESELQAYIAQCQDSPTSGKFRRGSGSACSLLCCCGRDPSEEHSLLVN
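Tetracycline-induced TRPML1-DL cells are seeded and incubated overnight before loading with a no-wash Ca2+ dye and quencher. Agonist activity is taken from the 110 s fluorescence read following compound pin-transfer on an FDSS, before EC80 54-4 challenge.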
Six1-Eya2 inh = qHTS Assay for Inhibitors of the Six1/Eya2 Interaction | Homeobox protein SIX1 (Homo sapiens) + Protein phosphatase EYA2 (Homo sapiens), … | AlphaScreen GST-Six1/His-Eya2 binding, biochemical; active compounds read low; control for the full effect not named in the record | activity change, % (concentration not given with the values) | hit rate 0.56% among 360,000 | AID 651725, 2012; in the data active = activity change below about -65%; inconclusive = about -30% to -65%; inactive = above about -30%; also: % is scaled to controls: 0 for no effect and ±100 for the full control effect
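Six1/Eya2 binding was read as AlphaScreen signal after compounds were pinned into GST-Six1 plus His-tagged Eya2 (5X stock 250/500 nM) in pH 8.0 Tris/NaCl/TCEP buffer, beads added, then incubated 1 h, 37 C, dark.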
TRPML1 inh = qHTS for Inhibitors of the Human Mucolipin Transient Receptor Potential 1 (TRPML1). hit rate 0.02% among 390,000. Mucolipin-1 (Homo sapiens), Q9GZU1. activity change, negative = inhibition, % (test concentration not listed). TRPML1-inducible cells, Ca2+ dye fluorescence, FDSS; active compounds read low; inhibition of EC80 agonist-evoked calcium signal; in the data active means activity change below about -50%; inconclusive means about -30% to -50%; inactive means above about -30%;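 also: stimulus is agonist 54-4 at its EC80 concentration; % is scaled to controls: 0 for no effect and ±100 for the full control effect; compound concentration not given in the record; the text of the record puts the active cut at -80%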
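TRPML1-DL cells, Tet-induced overnight (~16 h, 37 °C) at 1,500 cells/well, were loaded with Ca8 no-wash dye plus quencher for 45-90 min at room temperature. Compounds were pinned during FDSS kinetic reading; agonist 54-4 at EC80 (4 uM final) then added.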
Active calls of the source: *; ? = inconclusive; nt = no result given; [ ] = dose if it differs, or a comment.

compound	PINK1 modulator	CtBP-E1A inh	D2 ag	TRPML1 agonist	Six1-Eya2 inh	TRPML1 inh
CCc1c(C#N)sc(C(N)=O)c1CC	-1.4%	5	-3.3	0.5	9	-16
COC(=O)C1=C(C(=O)OC)[N+]2=C3N(C(=O)NC2(C)C)[C@H](CO)C[C@@]32c3ccccc3N(Cc3ccccc3)[C@@H]12	5.7%	?	-2.4	0.7	?	-5
CCN(CCCc1ccccc1)CCCc1ccccc1	1.3%	-19	-9.1	-0.8	5	8
CN(C(=O)COC(=O)COc1ccc(N(C)S(=O)(=O)c2ccc(Cl)cc2)cc1)c1ccccc1	5.2%	nt	-1.6	1.0	13	37
COc1ccc(NC(=O)CSC2=Nc3ccccc3C3=NC(CCC(=O)NC4CCCCC4)C(=O)N23)cc1 (stereo not given)	2.9%	nt	nt	0.0	nt	20
C=CCn1c(COc2ccccc2)nnc1SCC(=O)N/N=C/c1ccc(C)cc1	-1.6%	-2	-2.0	-1.0	-7	-8
CCOc1ccc(NC(=O)CSc2nc3ccsc3c(=O)n2Cc2ccc(C(=O)O)cc2)cc1	2.3%	-6	-8.4	-0.2	-8	4
Cc1ccc(Sc2cnc3ccccc3n2)cc1	2.7%	91	-5.7	1.0	78	-4
CC(=O)c1cccc(NC(=O)c2cc(Cl)sc2Cl)c1	-1.4%	-5	-1.3	0.8	-15	-18
C=CCn1c(SCC(=O)Nc2ccc(N3CCOCC3)cc2)nnc1-c1ccco1	-0.2%	7	5.3	0.3	0	47
COc1cc(SC)ccc1C(=O)NCCN1CCOCC1	0.0%	-1	-7.5	-0.3	-3	-10
Cc1cc(C(=O)NCC(=O)OC(C)C(=O)N2CCOCC2)ccc1[N+](=O)[O-] (stereo not given)	0.1%	-16	-2.7	3.0	12	-10
O=C(O)CSC12CC3CC(C1)CC(C(=O)O)(C3)C2	-0.5%	2	-3.3	-0.4	7	39
Cc1cc(O)c(C(=O)Nc2cccc(Cl)c2)c(=O)n1C	2.3%	nt	-2.0	0.2	21	4
CCN1C(=O)CC(Sc2ccccc2C(=O)O)C1=O (stereo not given)	?	7	15	0.6	3	-10
CCn1c(SCC(=O)NCc2ccco2)nnc1C(C)C	2.8%	3	0.5	0.0	-1	-11
COc1cccc(Cn2c(-c3nonc3NC(C)=O)nc3ccccc32)c1	3.4%	nt	nt	4.4	nt	-9
Cc1ccc(C)c(S(=O)(=O)NCc2ccc(C(=O)N3CC(C)OC(C)C3)cc2)c1 (stereo not given)	-1.2%	-1	-0.7	-0.7	5	12
CS(=O)(=O)N1CCN(c2ccccc2NC(=O)c2ccc(Br)o2)CC1	20%[38.3 µM]	0	-2.5	1.1	-8	10
COc1ccc(/C=N/c2nc3ccccc3n2CCN2CCCCC2)cc1OC	3.5%[38.3 µM]	-2	-3.0	-0.1	0	-1
O=C(Cc1ccccc1)NCC(=O)OCC(=O)c1cccs1	nt	9	-2.6	0.1	-1	2
O=C(Cn1c(-c2ccccc2)c[n+]2ccsc12)c1ccc(Br)cc1	0.1%	3	8.1	-0.5	-1	-1
Cc1onc(-c2c(F)cccc2Cl)c1C(=O)NCc1ccccn1	-2.2%	1	-3.0	-0.3	6	-2
C=C1C(=O)[C@]23C[C@H]1CC[C@H]2[C@]1(C)[C@@H](O)CC[C@@](C)(C(=O)O)[C@H]1C[C@@H]3O	2.5%	8	2.8	-0.2	14	9
CC(=O)c1cccc(NC(=O)CCCN2C(=O)COc3ccc(C)cc32)c1	0.0%	nt	nt	2.1	nt	-9
CN(C)CCN1C(=O)C2C(C(=O)Nc3cc(Cl)cc(Cl)c3)C3C=CC2(O3)C1C(=O)NC1CCCCC1 (stereo not given)	0.7%	16	-2.1	-0.6	0	1
CCN(CC)S(=O)(=O)c1ccc(C(=O)NCCCn2ccnc2)cc1	3.8%	5	1.0	-1.2	-1	-3
CCCCOc1ccc(Cc2n[nH]c(=S)n2N)cc1	1.3%	-1	-1.2	-0.7	-2	-7
CCCCN(C(=O)c1cc2c(s1)CCCCC2)c1c(N)n(CC(C)C)c(=O)[nH]c1=O	0.4%	-18	-3.2	-0.4	0	-2
Cc1ccc(NC2CCCN(C(=O)c3cc4ncccn4n3)C2)cc1C (stereo not given)	-0.3%	1	1.2	0.3	2	-18

Ordered by the number under CtBP-E1A inh (ascending): 4 of the compounds above.
| Molecule | CtBP-E1A inh |
| --- | --- |
| CCCCN(C(=O)c1cc2c(s1)CCCCC2)c1c(N)n(CC(C)C)c(=O)[nH]c1=O | -18 |
| CCCCOc1ccc(Cc2n[nH]c(=S)n2N)cc1 | -1 |
| Cc1onc(-c2c(F)cccc2Cl)c1C(=O)NCc1ccccn1 | 1 |
| CN(C)CCN1C(=O)C2C(C(=O)Nc3cc(Cl)cc(Cl)c3)C3C=CC2(O3)C1C(=O)NC1CCCCC1 (stereo not given) | 16 |

(listing goes on)
compound	PINK1 modulator	CtBP-E1A inh	D2 ag	TRPML1 agonist	Six1-Eya2 inh	TRPML1 inh
CCCCNC(=O)CCCn1c(=O)c2ccccc2n(CC(=O)NCCC2=CCCCC2)c1=O	-2.1%	0	-1.5	0.0	10	-6
COc1cccc(C(CNC(=O)c2ccc(Cl)c(S(=O)(=O)N3CCCC3)c2)N(C)C)c1 (stereo not given)	-1.5%	0	-1.8	0.5	2	9
O=C(NCCO)c1ccc(-c2cnc3cccnn23)cc1	0.4%	0	-0.5	-0.5	-4	nt
CCOC(=O)C1(Cc2ccccc2C(F)(F)F)CCN(C(C)CCn2cccn2)CC1 (stereo not given)	2.0%	-20	0.6	0.3	-7	4
O=C(NNC(=O)C1CCCO1)c1ccc(Br)cc1 (stereo not given)	0.9%	7	-1.4	-0.3	8	24
COc1ccc(NS(=O)(=O)c2cccc(C(=O)NCc3ccccc3CN3CCCC3)c2)cc1	1.8%	nt	-0.4	1.2	3	-18
COc1ncnc2c1ncn2CCCNc1ccc(C)c(C)c1	-0.4%	-18	-1.1	0.9	-3	-17
COCCNC(=O)c1cc2c(c(-c3cccc(C#CC(C)(C)O)c3)n1)[C@@H](CCO)N(S(=O)C(C)(C)C)C2 (stereo not given in full)	0.5%	21	2.5	0.7	21	nt
COc1cc(Cl)ccc1OC(=O)c1cn(-c2ccccc2OC)c(=O)c2ccccc12	2.5%	nt	nt	-0.5	nt	9
Cc1cc(S(=O)(=O)N2CCCCC2CCNC(=O)C(=O)NCc2cccnc2)ccc1F (stereo not given)	-0.3%	3	-4.3	1.7	5	1
CN(Cc1ccccc1)C(=O)c1ccc(NC(=O)Cc2ccc(NC(=O)C3CCN(C(=O)CCc4ccccc4)CC3)cc2)cc1	0.2%	-19	0.3	1.5	-6	-5
Cc1ccc(C(=O)NCCC(=O)NCc2cc(=O)n(C)c(=O)n2C)cc1	0.0%	-11	-0.8	-0.6	2	25
O=C1N(Cc2cccnc2)C[C@@H]2C[C@@H](c3cccc(Oc4ccccc4)c3)N3CCC[C@@]123	1.7%	-8	-2.0	0.2	-12	13
O=C(CCN1C(=O)c2ccccc2C1=O)Nc1ccccc1C(F)(F)F	4.7%	nt	-1.4	-0.2	-2	67
O=C(NNC(=O)c1cnccn1)c1ccc(Cl)cc1	1.6%	-19	-0.9	-0.2	-11	0
O=C(c1cccc(C(=O)N(c2ccccn2)C2CCCCC2)c1)N(c1ccccn1)C1CCCCC1	-2.2%	18	?	2.9	0	-21
O=[N+]([O-])c1ccc([C@H](O)[C@H](CO)N=Cc2ccccc2O)cc1	-1.9%	0	-3.8	-0.1	6	2
COc1ccc(N(CC(=O)Nc2ccc3c(c2)OCCO3)S(=O)(=O)c2cccnc2)cc1	1.0%	2	3.0	1.0	-9	-25
CC1CN(C(=O)CN2C(=O)c3ccccc3S2(=O)=O)CC(C)O1 (stereo not given)	0.2%	2	-2.5	-0.5	0	8
Cc1ccccc1C(=O)NC1CCN(CC(=O)NCc2ccccc2)CC1	2.3%	3	-4.7	0.6	2	9
CCc1cc(=O)oc2cc(OCC(=O)NCCCn3ccnc3)c(Cl)cc12	-0.6%	-26	0.3	0.1	-10	31
COc1ccc(CCNC(=O)C2CCCN2C(=O)Nc2ccc(C)cc2)cc1OC (stereo not given)	-0.6%	-1	-0.2	0.0	7	-11
CN(C)/C=C1\C(=O)Nc2ccccc21	-0.8%	2	-4.1	-0.1	0	4
COc1ccc(C(=O)/C(=C\c2ccco2)N2C=CC=CC2=C(C#N)C#N)cc1	-1.7%	-2	-9.2	2.0	-11	23
CCNC(=O)NC(=O)C(C)OC(=O)CNS(=O)(=O)c1c(Cl)cc(Br)cc1Cl (stereo not given)	1.6%	6	-6.8	-0.5	3	0
CCOc1ccc(C(=O)Nc2ccc(Cl)cn2)cc1Cl	-1.7%[38.3 µM]	1	3.2	0.8	6	-8
Cc1cc(NN)nc(NS(=O)(=O)c2ccccc2)n1	-0.4%	-25	1.1	-0.2	-8	1
Cc1cccc(OCC(=O)N/N=C/c2cccn2C)c1	-0.3%	nt	-6.5	-0.5	-13	24
CN(C=O)c1ccc(CSc2ccccc2)cc1	1.7%	-13	?	2.1	-9	-7
COC(=O)C1=C(C)Nc2ncnn2C1c1ccc(C)o1 (stereo not given)	0.5%	0	-1.8	1.0	5	-5
CCOC(=O)C1(Cc2cccc(OC)c2)CCN(Cc2ccc(OC)c(OC)c2)CC1	1.6%	-7	-0.8	0.2	-5	-13
NC(=O)COc1ccc(S(=O)(=O)N2CCCC2)cc1	0.2%	1	-4.7	-0.8	5	13
COc1ccc(O)c(C=Nc2cc(NC(C)=O)c(Cl)cc2Cl)c1	-0.3%	0	-3.2	-0.4	2	8
CCOC(=O)Cc1csc(NC(=S)NC(=O)C(C)(C)C)n1	-0.5%	9	-2.5	3.6	4	-5
Cc1ccc(NC(=O)CN(C)C(=O)c2cccc(S(=O)(=O)NCc3ccco3)c2)cc1	-0.7%	2	3.1	-0.6	-7	1
C=CC[N@@+]12CC[C@]34c5ccccc5N5/C=C6\C7N(/C=C(\C53)[C@@H](C[C@@H]41)/C(=C/CO)C2)c1ccccc1[C@@]71CC[N@@+]2(CC=C)C/C(=C\CO)[C@@H]6C[C@@H]12 (stereo not given in full)	0.4%	1	4.4	0.1	-5	16
CN1CCN(C(=O)c2cc3c(C(F)(F)F)nn(C)c3s2)CC1	-1.4%	-2	0.6	-0.3	4	28
